# gsp ag = qHTS for Agonist of gsp, the Etiologic Mutation Responsible for Fibrous Dysplasia/McCune-Albright Syndrome: qHTS; gsp mutant cells, cAMP HTRF, 30 min; control for the full effect not named in the record; 0.13% of 340,000 active; Potency, µM (titrated, usually from 76.9 µM), without a hit: top-dose activation (cAMP increase), hits mostly activators; AID 624287, 2012; active = well fitted activation curve with a large enough effect; inconclusive = small, poorly fitted or top-dose-only effect, or another doubt; inactive = no such curve, though single readings can be large or run the other way; cell line not stated here;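 also: phosphodiesterase inhibitor Ro 20-1724 added with compounds to block cAMP breakdown; potency is read from the fitted curve at half-maximal effect; nearly all actives have a fitted effect of over 60% in size; about a fifth of the inactives were tested at one dose only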
#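 Cells stably selected in G418 were plated at 2000/well, grown 16-24 hr, then given compounds in DMSO with the PDE inhibitor […] (300 uM solution added) for 30 min at 37C; cAMP was read by HTRF.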
# Menin MLL FP FL = qHTS Assay for Inhibitors Targeting the Menin-MLL Interaction in MLL Related Leukemias: Competition With Fluorescein Labeled MLL-derived Peptide | Fluorescence polarization, fluorescein-MLL peptide displacement from menin | FP activity change, % at 61.4 µM | AID 1766, 2009 | 290,000 tested, under 10 active; inconclusive = falling polarisation curve, or a change in total fluorescence; inactive = total fluorescence flat and polarisation flat or rising; no compound was filed as active; the % refers to the polarisation; negative = inhibition;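 also: % of control where 0% means no effect; inhibitors lower the polarisation; unlabelled MLL peptide was the positive control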
# gsp antag = qHTS for Antagonists of gsp, the Etiologic Mutation Responsible for Fibrous Dysplasia/McCune-Albright Syndrome: qHTS; gsp-mutant cells, cAMP HTRF, 30 min; control for the full effect not named in the record; 0.4% of 340,000 active; Potency, µM (highest dose often 76.9 µM), for the others: at the highest dose activity change, negative = inhibition, most hits filed as inhibitors; active = falling curve of any shape with a large fitted effect; inconclusive = falling curve, mostly with a smaller effect; inactive = flat or rising curve; cell line not stated here;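 also: intracellular cAMP measured with PDE inhibitor Ro 20-1724 present during compound exposure; potency is read from the fitted curve at half-maximal effect; % is scaled to controls: 0 for no effect and ±100 for the full control effect; nearly all actives have a fitted effect of over 65% in size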
#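 Measurement of cellular cAMP by homogeneous time-resolved fluorescence following a 30 min compound exposure at 37C. The PDE inhibitor […] was present throughout; the assay buffer was DPBS with 0.05% BSA and 0.005% Tween 20.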
# Sfp inh = qHTS Assay for Inhibitors of Bacillus subtilis Sfp phosphopantetheinyl transferase (PPTase) | 4'-phosphopantetheinyl transferase ffp (Bacillus subtilis), Q9F4F7 | 3.5% of 310,000 active | Potency, µM, without a hit: max response, negative = inhibition, most hits filed as inhibitors | Biochemical Sfp PPTase activity, qHTS; active = well fitted inhibition curve with a large enough effect; inconclusive = small, poorly fitted or top-dose-only effect, or another doubt; inactive = no such curve, though single readings can be large or run the other way;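 also: the enzyme is Sfp with the accession as filed and its product quenches rhodamine fluorescence; potency is read from the fitted curve at half-maximal effect; 0% = enzyme reaction without inhibitor and -100% = no enzyme wells; top concentration of the series not given in the record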
#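 Compounds were incubated with enzyme (final 15 nM) for 15 min at room temperature before substrate addition started the reaction. Fluorescence at 525 nm excitation, 598 nm emission was recorded immediately and after 30 minutes.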
# ClpP mod = qHTS Assay for Activators of ClpP; Potency, µM (highest dose often 57.5 µM), for inactives: at the highest dose activity change, negative = active; purified B. subtilis ClpP, FRET peptide cleavage, 20 min; 1.9% of 340,000 active; ATP-dependent Clp protease proteolytic subunit (Bacillus subtilis (strain 168)), P80244; active = well fitted falling curve with a large enough effect; inconclusive = small, poorly fitted or top-dose-only effect; inactive = no such curve, though single readings can be large or run the other way; also: potency is read from the fitted curve at half-maximal effect; the source files actives as falling curves though it sought activators and does not explain the sign; nearly all actives have a fitted effect of over 65% in size; many hits overshoot -100%
# Target sequence (P80244 whole entry, looked up): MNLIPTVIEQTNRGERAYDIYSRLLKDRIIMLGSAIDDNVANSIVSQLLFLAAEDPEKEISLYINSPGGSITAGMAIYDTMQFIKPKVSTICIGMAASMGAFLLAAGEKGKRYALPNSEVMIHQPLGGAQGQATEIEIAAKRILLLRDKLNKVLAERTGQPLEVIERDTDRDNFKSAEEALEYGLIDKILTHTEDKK
#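 Buffer: 100 mM Tris/HCl pH8, 100 mM KCl, 0.05% low protease BSA, 2.5% glycerol, 0.01% Tween-20. ClpP 10 microg/mL final; 20 min RT; delta FRET normalized to ADEP and DMSO controls.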
# TRPML1 blocker = qHTS for Inhibitors of the Human Mucolipin Transient Receptor Potential 1 (TRPML1) | Mucolipin-1 (Homo sapiens), Q9GZU1 | TRPML1-inducible cells, Ca2+ dye fluorescence, FDSS; active compounds read low; inhibition of EC80 agonist-evoked calcium signal | activity change, negative = inhibition, % (test concentration not listed) | 0.02% of 390,000 active; in the data active means activity change below about -50%; inconclusive means about -30% to -50%; inactive means above about -30%;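 also: stimulus is agonist 54-4 at its EC80 concentration; % is scaled to controls: 0 for no effect and ±100 for the full control effect; compound concentration not given in the record; the text of the record puts the active cut at -80%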
# Target sequence (Q9GZU1 whole entry, looked up): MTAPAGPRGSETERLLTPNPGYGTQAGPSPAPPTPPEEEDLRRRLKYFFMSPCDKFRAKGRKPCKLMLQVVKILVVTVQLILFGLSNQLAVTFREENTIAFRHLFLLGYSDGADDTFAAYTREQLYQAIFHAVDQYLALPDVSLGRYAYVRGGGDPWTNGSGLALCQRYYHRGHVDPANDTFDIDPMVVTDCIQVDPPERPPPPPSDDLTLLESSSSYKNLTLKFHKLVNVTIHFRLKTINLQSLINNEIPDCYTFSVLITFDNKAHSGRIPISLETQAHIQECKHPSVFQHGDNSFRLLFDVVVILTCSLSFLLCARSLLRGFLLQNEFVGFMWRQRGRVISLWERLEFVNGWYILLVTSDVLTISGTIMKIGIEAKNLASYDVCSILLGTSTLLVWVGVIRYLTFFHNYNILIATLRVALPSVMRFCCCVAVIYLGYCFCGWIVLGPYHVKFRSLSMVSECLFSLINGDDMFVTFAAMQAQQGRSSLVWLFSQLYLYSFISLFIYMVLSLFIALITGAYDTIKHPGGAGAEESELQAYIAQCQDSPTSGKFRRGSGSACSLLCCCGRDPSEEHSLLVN
#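 Calcium fluorescence in TRPML1-DL cells induced overnight with Tet: a 110 s read after compound pin addition, then a 110 s antagonist read after challenge with 54-4 at 4 uM final (EC80).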
# TRPV1 PAM = HTS Assay for Compounds that Act as Potentiators of the Vanilloid Receptor 1; 0.02% of 320,000 active; Transient receptor potential cation channel subfamily V member 1 (Homo sapiens), Q8NER1; potentiation, % at 8.33 µM; AID 540277, 2011; TRPV1-expressing cells, Fluo-8 calcium influx, capsaicin EC20 potentiation; host cell line not named in the record; control for the full effect not named in the record; active means potentiation above 80%; inconclusive means 30% to 80%; inactive means below 30%; also: 0% is about no effect
#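 TRPV1-expressing cells were cultured overnight at 35.5C and loaded with Fluo-8 calcium dye for 40 to 90 min at room temperature. After a 10 s baseline, compound was added and calcium influx was read kinetically for 3 min (ex 480/em 520 nm).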
# Numbers without * were called inactive; ? = inconclusive; . = not tested or not shown; & = joins results of further samples; [ ] = another dose, or the depositor's remark. Not a hit list. About 4.9% of those tested had a hit in this group.
Structure,gsp ag,Menin MLL FP FL,gsp antag,Sfp inh,ClpP mod,TRPML1 blocker,TRPV1 PAM
Cc1ccc(NC(=O)c2cc(-c3cccc(O)c3)on2)cc1C,-39%,1.9,-4%,0%,1.2%,5,.
CC1Cc2cc(/C(O)=C3\C(=O)C(=O)N(Cc4cccnc4)C3c3ccccc3F)ccc2O1 (stereo not given),?,-0.9,17%,11%,-1.8%,-14,7
COc1ccccc1N1CCN(S(=O)(=O)c2ccc(Cl)cc2)CC1,-8%,3.2,5%,6%,-0.1%,8,13
C/[N+]([O-])=C\C1C(=O)CC(C)(C)CC1=O,-14%,3.2,9%,17%,.,-12,4
O=C(CN1CCC(NC(=O)c2ccco2)CC1)Nc1ccccc1[N+](=O)[O-],.,-0.6,.,4%,.,.,5
CCOC(=O)c1c(NC(=O)Cn2cnc([N+](=O)[O-])n2)sc(C)c1C,-8%,1.4,-1%,6%,.,0,1
Cc1nc(C(F)(F)F)c(C(=O)O)cc1-c1nc(-c2ccccc2)cs1,21%,-3.3,-13%,-28%,4.4%,39,10
Cc1nnc(SCc2nc3ccccc3s2)n1N,16%[15.4 µM],-0.1,.,14%,.,6,-1
Nc1c(C=C2C=CC(=O)C=C2)c(=O)nc2sc(CC(=O)N3CCCCC3)nn12,2%,.,-5%,9%,-2.2%,2,4
O=C(COC(=O)c1cccnc1Cl)NC(=O)NC1CCCCC1,6%,.,-9%,.,.,1,.
Cc1cccc(NC(=O)Nc2ccc(Br)cc2)n1,10%,2.6,-14%,7%,-2.1%&0.6%,2&-15,-6
CC1CCN(C(=O)C(Cc2ccccc2)NS(=O)(=O)c2ccc3c(c2)oc(=O)n3C)CC1 (stereo not given),-56%[inhibitor],3.4,-13%,-4%,-1.0%,6,.

# As entered above.
# Value of CCOC(=O)c1c(NC(=O)Cn2cnc([N+](=O)[O-])n2)sc(C)c1C in TRPML1 blocker: 0
# Value of Cc1nc(C(F)(F)F)c(C(=O)O)cc1-c1nc(-c2ccccc2)cs1 in Menin MLL FP FL: -3.3

# Continued.
Structure,gsp ag,Menin MLL FP FL,gsp antag,Sfp inh,ClpP mod,TRPML1 blocker,TRPV1 PAM
COC(=O)Cc1cc(=O)n2[nH]cnc2n1,13%,-1.3,4%,-9%,-1.3%,-2,-2
COc1cc(/C=N/N=C(N)N)ccc1OCc1ccc(Cl)cc1,28%,-3.6,9%,16µM*,1.0%,7,7
FC(F)(F)c1cccnc1-n1cncn1,-1%,3.3,9%,-4%,0.9%,15,4
CCOC(=O)/C=C/[C@H]1CCc2cccc(Cl)c2O1,-71%[inhibitor],.,0%,.,-1.9%,-1,-9
O=S(=O)(CCc1ccncc1)c1ccc(Cl)cc1,10%[15.4 µM],.,13%,3%,.,4,-5
COc1ccc(S(=O)(=O)N2CCOCC2)cc1NC(=O)COC(=O)c1ccc(C)s1,1%[15.4 µM],-1.3,.,13%,.,6,-6
O=C(Nc1sc2c(c1C(=O)Nc1cccc(Cl)c1)CCCC2)c1cccs1,.,.,.,.,-3.0%,-10,-3
CC(OC(=O)CCN=C1NS(=O)(=O)c2ccccc21)C(=O)N(C)C1CCCCC1 (stereo not given),-7%,.,-2%,.,-2.6%,1,-5
CCc1ccccc1N(C)S(=O)(=O)c1ccc2[nH]cc(C(=O)N3CCc4ccccc43)c(=O)c2c1,0%,3.6,-12%,6%,-9.4%,-13,9
CN1CCN(C2CCN(c3ccc(Nc4nnc(Cl)c(Nc5ccccc5S(C)(=O)=O)n4)c(OC(CF)CF)c3)CC2)CC1,.,.,0%,.,-3.5%,-1,.
CC(C)CNC(=S)NC(=O)c1csc([N+](=O)[O-])c1,-16%,4.8,-13%,-23%,.,-19,24
O=C(Cn1cnc2c(nnn2-c2ccccc2)c1=O)NCCc1ccccc1,?,-0.5,-4%,9%,-0.4%,-4,-4
Cn1c(/C=C/c2ccc(Cl)cc2)c([N+](=O)[O-])c(=O)n(C)c1=O,14%,-5.3,-14%,5%,-1.5%,-3,1
COC(=O)C1=CN(Cc2ccc(F)cc2)C=C(C(=O)OC)C1c1cc(OC)c(OC)c(OC)c1,6%,-8.2,16%,-5%,3.5%,26,-14
Nc1cc(=O)[nH]c(SCC(=O)NC2CCCc3ccccc32)n1 (stereo not given),-40%[inhibitor],-2.4,4%,7%,-0.1%,-9,-4
CC1=NN(c2nc(-c3ccc(C)cc3)cs2)C(=O)C1N=Nc1cccc(C)c1 (stereo not given),-80%[inhibitor],6.5,6%,-9%,0.5%,11,17
COC(=O)Cn1c(CCS(=O)(=O)c2ccc(C)cc2)nc2ccccc21,5%,-1.5,-8%,3%,-3.7%&-24%,5,-24
N/C(=N\c1nc2ccccc2o1)NC(=O)c1cccc(Br)c1,-5%[15.4 µM],0.4,?,16%,.,7,1
COC(=O)c1cn(C)c2ccc(S(=O)(=O)N(C)C3CCCCC3)cc2c1=O,-53%[inhibitor],.,.,.,0.2%,-10,.
Cc1ccc(S(=O)(=O)N2CCOC2CNC(=O)C(=O)NCc2ccccc2)cc1 (stereo not given),1%,.,20%,15%,-3.2%,31,-7
CSc1ccc(S(=O)(=O)NC2CCCCCC2)cc1,-13%,0.0,1%,8%,0.6%,-8,-1
Cc1ccc(-n2ncc3c(NCc4ccc5c(c4)OCO5)ncnc32)c(C)c1,-70%,-0.2,-21%,10%,-3.8%,1,-7
COc1ccc(S(=O)(=O)n2nc(C)cc2C)cc1OC,-15%,0.2,0%,8%,-0.1%,-8,15
O=S(=O)(NCC(c1cccnc1)N1CCN(c2ccc(F)cc2)CC1)c1cc(F)ccc1F (stereo not given),-23%,.,-6%,.,-0.1%,-1,.

# Following part:
# Below each SMILES – gsp ag	Menin MLL FP FL	gsp antag	Sfp inh	ClpP mod	TRPML1 blocker	TRPV1 PAM
COC(=O)c1ccc(SCc2ccccc2)nc1
→ -12%	.	1%	.	-0.3%	4	.
O=C(Nc1ccc(F)cc1F)NC1CC1
→ -15%[15.4 µM]	0.6	2%	16%	.	-7	-3
COc1ccc(OC)c(C2=NNC(=NCc3ccc4c(c3)OCO4)SC2)c1
→ 10%[15.4 µM]	11	-1%	0%	.	13	17
COCc1c(C(=O)OC)nnn1-c1ccccc1
→ 14%	-0.2	5%	1%	-0.3%	-8	5
CCOC(=O)C(=CNc1cccc(C)c1C)C(=O)OCC
→ 1%	-0.3	?	19%	-10%	24	-18
Cc1c(C(=O)OC(C)C)nnn1-c1nonc1N
→ -6%	1.6	2%	-14%	0.4%	46	30
CSc1ccc(CN(C)C(=O)CNC(=O)CNS(=O)(=O)c2ccc(C)c(C)c2)cc1
→ 27%	0.8	-5%	6%	.	12	-8
CCOC(=O)n1cnc2nc(N)nc(SC)c21
→ 6%	.	1%	.	-6.5%	15	.
C/C(=N/NC(=O)CN1CCN(Cc2ccccc2)CC1)c1ccc([N+](=O)[O-])cc1
→ 13%	-0.1	-11%	-9%	.	5	8
CC(C)(C)C(=O)CC1(O)C(=O)N(Cc2ccc(Cl)cc2)c2ccccc21 (stereo not given)
→ -15%	-1.3	-6%	1%	-2.5%	-3	-8
CCOC(=O)C1CCN(C(=O)c2ccccc2NC(C)=O)CC1
→ -31%[inhibitor]	-2.7	-5%	18%	0.6%	-10	1
Cc1ccc(-c2csc3ncnc(-n4nc(C)cc4N)c23)cc1
→ -7%	2.8	2%	-9%	0.7%	22	-14
O=C(NCCn1c(C(F)(F)F)nc2cc(C(F)(F)F)ccc21)[C@H]1CCCN1c1nc(CN2CCCCC2)cs1
→ -10%	2.6	12%	-4%	-3.5%	-7	-9
O=C(CSc1nc2cc3c(cc2c(=O)n1CCC1=CCCCC1)OCO3)NCc1ccco1
→ -55%[inhibitor]	-5.3	3%	8%	-2.9%	-8	20
c1ccc(N2CCN(c3nc4cc5c(cc4s3)OCCO5)CC2)cc1
→ -46%[inhibitor]	4.1	4%	3%	-2.8%	-6	-9
O=C(NC1CC1)c1cc(Cl)ccc1[N+](=O)[O-]
→ 10%	-0.1	-6%	1%	2.1%	6	-16
CC1C/C(=N/NC(=O)c2cccs2)CC(C)(C)C1 (stereo not given)
→ 10%	3.6	7%	2%	-0.9%	4	-1
CN(C(=O)COC(=O)c1cc2ccccc2cc1O)c1c(N)n(Cc2ccccc2)c(=O)[nH]c1=O
→ -13%[15.4 µM]	.	-2%	.	.	-11	-4

# Whole records, quoted from the list. Screens in order: gsp ag	Menin MLL FP FL	gsp antag	Sfp inh	ClpP mod	TRPML1 blocker	TRPV1 PAM
# CSc1ccc(S(=O)(=O)NC2CCCCCC2)cc1 reads -13%	0.0	1%	8%	0.6%	-8	-1
# Cc1ccc(-n2ncc3c(NCc4ccc5c(c4)OCO5)ncnc32)c(C)c1 reads -70%	-0.2	-21%	10%	-3.8%	1	-7
# CCOC(=O)c1c(NC(=O)Cn2cnc([N+](=O)[O-])n2)sc(C)c1C reads -8%	1.4	-1%	6%	.	0	1

# High-throughput results (PubChem)
